# Bm FixLJ act – activators of Burkholderia fixLJ two-component system, primary screen, B. multivorans, GFP reporter. B. multivorans fixK-promoter GFP reporter, 18 h; hits give high values. z-score (test concentration not listed). hit rate 0.3% among 29,000;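 active = replicate mean overnight rise in green fluorescent reporter signal, 3 or more SD over negative controls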;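 note: score is relative to vehicle wells of the plate; 300 nL library stock went into each well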
# An asterisk follows results filed as active.
SMILES,Bm FixLJ act
CCOc1ccccc1NC(=O)N1CCCN(C(=O)c2ccncc2Cl)CC1,-1.22
Cc1ccc(NC(=O)C2CCCN(S(=O)(=O)c3cccc4cccnc34)C2)c(C)c1 (stereo unspecified),-0.85
COc1cccc(NC(=O)c2sc3nc(C)c(C(=O)Nc4ccc(C)cc4C)c(-c4ccc(Br)cc4)c3c2N)c1,-0.2
COCC1(CNC(=O)c2c(C)n(C)c3ccc(OC)cc23)CCCC1,-1.23
O=C(CCN1CCCCC1c1ccccn1)Nc1nccs1 (stereo unspecified),-0.24
O=C(CCc1cccnc1)NCC1CCN(S(=O)(=O)c2cccs2)CC1,-0.99
COc1ccc(-c2noc(CSc3nnc(-c4ccc(Cl)cc4)n3C)n2)cc1OC,-1.1
Cc1cc(O)c(-c2ccnc3cc(-c4ccccc4)nn23)cc1Cl,0.29
Cc1c2cnn(CC(=O)NC(C)C)c(=O)c2c(C)n1Cc1cccc(Cl)c1,-1.64
Cc1ccn2c(Nc3ccc4c(c3)OCO4)c(-c3ccc(O)cc3)nc2c1,-1.61
CCOC(=O)C1CCCN(S(=O)(=O)c2cc(Br)cc3c2N(C(=O)CC)CC3)C1 (stereo unspecified),-0.77
CCOC(=O)c1cc(-c2ccc(C)cc2)n(CCC(=O)NCCc2ccc(C)cc2)c1C,0.46
Cc1nc2nc(SCC(=O)NCc3ccccc3Cl)nn2c(C)c1Cc1ccccc1,-2.06
Cc1cnc(C)c(N2CCN(c3ncccc3C(=O)N3CCCC3)CC2)n1,-0.92
CCCCOc1ccc(NC(=O)c2cc3c(n(-c4ccc(Cl)cc4)c2=O)CCCC3=O)cc1,-0.04
Cc1ccc(CCNC(=O)c2ccc(CS(=O)(=O)c3ccc(Br)cc3)o2)cc1,1.47
Cc1cccc(CSCCNC(=O)CN(c2ccccc2)S(=O)(=O)N(C)C)c1,-0.59
Cc1cc(Br)cc(C)c1NC(=O)c1cnc2ccccn2c1=O,0.52
CN(C)c1ccc(C(=O)N2CCC3(CCCN(CCO)C3=O)C2)cn1 (stereo unspecified),0.18
CC1(C)N=C(c2ccc(F)cc2)C(=O)N1CC(=O)Nc1ccccc1Cl,-1.44
COc1ccc(-c2cc(C(=O)Oc3ccc(C)cc3)c3ccccc3n2)cc1,0.28
Cc1nc(CC(=O)N2CCC3(CCCN(C4CCCCC4)C3=O)C2)n[nH]1 (stereo unspecified),-0.11
NCCn1cc(C(=O)NCc2ccccc2Cn2cccn2)nn1,-0.6
CC1=Nc2cc(C(=O)NC(C)C)ccc2Sc2ccc(C)cc21,-0.39
Cc1ccc(-n2c(=O)c3ccc(C(=O)NCc4ccco4)cc3n(Cc3ccc(Cl)cc3)c2=O)cc1,0.71
SMILES,Bm FixLJ act
Cc1ccc(C(=O)NCc2nc(-c3ccncc3)n[nH]2)cc1N1CCNC1=O,-0.46
CC(C)(C)c1ccc(-c2nc3cc(NC(=O)c4cc5ccccc5o4)ccc3o2)cc1,-0.47
COc1ccc(CCNC(=O)c2cccc(Nc3nc4ccccc4nc3-n3nc(C)cc3C)c2)cc1OC,0.64
COc1ccc(N2Cc3cccc(C(=O)Nc4ccc(C)cc4)c3C2=O)cc1,-0.49
CN(C)c1ccc(CNC(=O)C(Cc2ccccc2)NS(=O)(=O)c2ccc3c(c2)oc(=O)n3C)cc1 (stereo unspecified),-0.44
Cc1ccc(N2CCN(c3c(CN4CCCC4)c(=O)oc4ccccc34)CC2)c(C)c1,0.06
COc1ccc(NC(=O)Cn2cc(S(=O)(=O)c3ccc(C)cc3)c(=O)c3ccccc32)cc1OC,-2.38
CC(C)OCCCNC(=O)c1cn(C)c2ccc(S(=O)(=O)N(C)C3CCCCC3)cc2c1=O,0.28
CCn1cc(C(=O)N(C)c2ccc(C(C)C)cc2)c2cc(OC)c(OC)cc2c1=O,0.95
CCC(=O)N1CCc2cc(Br)cc(S(=O)(=O)N3CCCC(C(=O)Nc4ccc(C)c(F)c4)C3)c21 (stereo unspecified),-1.73
COc1ccccc1N1CCN(CCC(=O)Nc2cccc(F)c2)CC1,-3.54
CCOCN(C(=O)Cn1cnc2cc(C)c(C)cc21)c1c(C)cccc1CC,-2.2
CN1CC2CN(C(=O)c3ccc(Cl)cc3F)C[C@@]2(C(=O)O)C1 (stereo partly specified),-0.54
COc1ccc(NC(=O)C2CCC(CNS(=O)(=O)c3ccc(Br)s3)CC2)c(OC)c1 (stereo unspecified),-0.78
Cc1ccc2c(c1)N(CCCC(=O)Nc1cccc(C(F)(F)F)c1)C(=O)CO2,-1.06
Cc1ccc(F)c(NC(=O)Nc2ccc3snnc3c2)c1,-1.31
CCn1cc(C(=O)N2CCN(c3ccc(OC)cc3)CC2)c2cc(OC)c(OC)cc2c1=O,-1.91
COCCNC(=O)c1ccc2c(c1)N(Cc1ccc(C(F)(F)F)cc1)C(=O)c1ccccc1S2,0.39
NC1CC(c2cc(NCC3CCCCC3)nc(C3CC3)n2)C1 (stereo unspecified),1.35
O=C(C1CCN(c2ccccc2)C1=O)N1CCC(Oc2ncccn2)CC1 (stereo unspecified),-0.73
CCc1ccc(-c2nc(CN3CCCC(C(=O)NCc4ccc(C)cc4)C3)c(C)o2)cc1 (stereo unspecified),-0.52
Cc1ccc(N2C(=O)C(CC(=O)Nc3cccc(F)c3)N(CCc3ccccc3F)C2=O)cc1 (stereo unspecified),0.07
CCOC(=O)c1c(NC(=O)c2ccccc2C)sc2c1CCCC2,1.32
COc1ccc(-n2nc(C(=O)N3CCN(c4cccc(C)c4C)CC3)c3c4ccccc4n(C)c3c2=O)cc1Cl,-0.73
Cc1nccn1C(C)CC(=O)N1CCN(Cc2nccn2C)CC1 (stereo unspecified),0.94
SMILES,Bm FixLJ act
COc1cccc(-n2c(=O)c3sc4ccccc4c3n(CC(=O)Nc3ccc(F)cc3F)c2=O)c1,0.96
Cc1ccccc1C(=O)NCc1nc(-c2ccc(Cl)cc2)no1,-2.39
COc1ccc(-n2c(=O)c3ccc(C(=O)NCc4ccc(C)cc4)cc3n(CC(=O)Nc3ccc(F)cc3)c2=O)cc1,0.93
CC(=O)N1CCc2cc(S(=O)(=O)NC(CC(C)C)C(=O)NCc3ccccc3)ccc21 (stereo unspecified),-1.31
Cc1oc2ccc(NS(=O)(=O)c3ccc(F)cc3)cc2c1C(=O)O,0.92
COc1ccc2c(c1)c1c(c(=O)n(Cc3ccccc3)c(=O)n1CC(=O)NCc1ccccc1Cl)n2C,-0.16
Cc1ncsc1CCN(C)C(=O)c1ccnc(-n2cnnc2)c1,-1.54
Cc1ccc(OCCOCCn2c(-c3ccc(Cl)cc3)nc3ccccc3c2=O)cc1,0.5
O=C(C1CCC1)N1CC2CN(Cc3ccc(Cl)o3)C[C@]2(C(=O)O)C1 (stereo partly specified),-0.94
Cn1ccnc1NC(=O)CCSc1ccc2c(c1)OCCO2,0.51
CCc1ccc(NC(=O)Cn2c(=O)n(CCc3ccccc3)c(=O)c3sc4ccccc4c32)cc1,-1.33
COc1ccc(N2CCN(CC(O)COc3ccccc3C(C)(C)C)CC2)cc1 (stereo unspecified),-1.27
CCc1ccc(C(=O)N2CCC(c3nc(-c4ccc(S(=O)(=O)N5CCCC5)cc4)no3)CC2)cc1,-1.12
COC1CCC[C@]12CCCN(C(=O)c1ccc3nc[nH]c3c1)C2 (stereo partly specified),0.02
CCOc1ccccc1NC(=O)CCNS(=O)(=O)c1cccc2nonc12,-1.37
CCc1nnc(CN(C)CCC(=O)N2CCCc3ccccc32)o1,-0.66
Cc1c(C(=O)OC2CCC(C)CC2)[nH]c2c1C(=O)CC(c1ccc(N(C)C)cc1)C2 (stereo unspecified),-1.38
CC(C)CN(CCCNC(=O)Cn1ncc2c3ccccc3n(C)c2c1=O)CC(C)C,-2.21
CC(=O)Nc1ccc(/C=C/c2noc(-c3ccccc3O)n2)cc1,-0.05
Cc1ccc(C)c(NC(=O)Cn2c(=O)n(CCC(C)C)c(=O)c3cccnc32)c1,-1.77
COc1ccc(-c2nc(CSCC(=O)NCc3ccccc3Cl)c(C)o2)cc1OC,-1.99
O=C1c2[nH]nc(-c3ccc(F)cc3)c2C(c2ccccc2F)N1c1ccccc1 (stereo unspecified),-0.74
COc1ccc(-c2ccno2)cc1S(=O)(=O)NC1COCC1OC (stereo unspecified),0.43
CCOc1ccc(C(=O)c2cn(CC(=O)Nc3cc(OC)cc(OC)c3)c3ccc(F)cc3c2=O)cc1,-1.94
CCOC(=O)c1cccc(NC(=O)CSc2nc3cc4ccccc4cc3[nH]2)c1,-0.83
SMILES,Bm FixLJ act
CC(C)c1ccc(NC(=O)C2CCN(S(=O)(=O)c3cccc4nsnc34)CC2)cc1,-2.36
COCCOC(=O)Cn1nnc2sc(-c3ccccc3)cc2c1=O,0.24
COc1ccccc1CNC(=O)c1cc2c(s1)-c1ccc(Cl)cc1SC2,-0.73
Cc1c(Cl)cccc1NC(=O)c1cc(-c2cccc(Cl)c2)on1,-1.85
CCOC(=O)c1ccccc1NC(=O)CCc1c(C)nc2c(c1C)c(=O)n(C)c(=O)n2C,-0.24
CCCCC(CC)CNC(=O)c1ccc2c(=O)n(Cc3ccc(OC)cc3)c(=O)[nH]c2c1 (stereo unspecified),0.9
Cc1ccc(CS(=O)(=O)c2ncc(Cl)c(C(=O)Nc3nnc(C(C)C)s3)n2)cc1,-1.69
Cc1cccc2c1-c1sc(C(=O)N3CCN(c4cccc(Cl)c4)CC3)cc1CO2,0.11
Cc1ccc(OCC(=O)N(Cc2ccco2)Cc2ccco2)cc1C,-0.6
COc1ccc(-c2oc3ncn4nc(COc5cccc(C)c5C)nc4c3c2-c2ccc(OC)cc2)cc1,0.16
CC(=O)c1sc2c(c1C)c(=O)n(-c1ccc(Cl)cc1)c(=O)n2Cc1ccc(Cl)cc1,-0.99
COC(=O)c1cc2sccc2n1Cc1nc(-c2cccc(Cl)c2)oc1C,-0.3
CC(=O)Nc1ccccc1NC(=O)CN1CCN(C)C(c2ccccc2)C1 (stereo unspecified),-2.07
Cc1cccc(C)c1Nc1c(-c2ccsc2)nc2ccc(Cl)cn12,0.07
Cc1ccc(C#N)c(N2CC(c3cccc(O)c3)C3C2C2CCN3CC2)n1 (stereo unspecified),-1.26
Cc1n[nH]c(C)c1CCN(C)C(=O)NCCc1c[nH]c2ccccc12,-0.46
Cc1ccc(CSc2oc(-c3ccco3)nc2S(=O)(=O)c2ccc(Br)cc2)cc1,-0.65
COC(=O)c1ccccc1NC(=O)C1=C(C)C(=O)OC12CCC(C)CC2 (stereo unspecified),-1.73
Cc1cc(C)c2c(=O)cc(C(=O)NCCc3ccc(S(N)(=O)=O)cc3)oc2c1,-2.78
CCOC(=O)N1CCc2c(sc3c2c(=O)n(Cc2ccccc2)c(=O)n3CC(=O)Nc2cccc(C)c2)C1,-1.12
COc1ccc(C2NC(=O)N(C)C3=C2C(=O)N(c2cccc(Cl)c2)C3)cc1 (stereo unspecified),-3.75
CCCNC(=O)CSc1c2c(nc3ccc(Cl)cc13)CCCC2,-1.06
NCCCC(=O)N1CCC2(CCCN(Cc3cccc(F)c3F)C2=O)C1 (stereo unspecified),-0.05
Cc1ccc(Nc2nnc(-c3ccc(C)c(S(=O)(=O)N4CCOCC4)c3)c3ccccc23)cc1,-0.12
Cc1ccc(OCCn2c(-c3ccc(Cl)cc3)nc3ccccc3c2=O)c(C)c1,-1.72

# Filtered by structure: the entries above with a tert-butyl group (two)
SMILES,Bm FixLJ act
CC(C)(C)c1ccc(-c2nc3cc(NC(=O)c4cc5ccccc5o4)ccc3o2)cc1,-0.47
COc1ccc(N2CCN(CC(O)COc3ccccc3C(C)(C)C)CC2)cc1 (stereo unspecified),-1.27

# 2 compounds drawn at random from the list so far, as already listed:
SMILES,Bm FixLJ act
Cc1ccc(OCC(=O)N(Cc2ccco2)Cc2ccco2)cc1C,-0.6
NCCCC(=O)N1CCC2(CCCN(Cc3cccc(F)c3F)C2=O)C1 (stereo unspecified),-0.05

# Looked up above:
# Under Bm FixLJ act, `CCCCC(CC)CNC(=O)c1ccc2c(=O)n(Cc3ccc(OC)cc3)c(=O)[nH]c2c1` (stereo unspecified) has 0.9
# Under Bm FixLJ act, `COC(=O)c1ccccc1NC(=O)C1=C(C)C(=O)OC12CCC(C)CC2` (stereo unspecified) has -1.73
# Under Bm FixLJ act, `CCOC(=O)c1ccccc1NC(=O)CCc1c(C)nc2c(c1C)c(=O)n(C)c(=O)n2C` has -0.24
# Under Bm FixLJ act, `CCOC(=O)N1CCc2c(sc3c2c(=O)n(Cc2ccccc2)c(=O)n3CC(=O)Nc2cccc(C)c2)C1` has -1.12
# Under Bm FixLJ act, `COc1ccc(-c2oc3ncn4nc(COc5cccc(C)c5C)nc4c3c2-c2ccc(OC)cc2)cc1` has 0.16
# Under Bm FixLJ act, `Cc1ccc(Nc2nnc(-c3ccc(C)c(S(=O)(=O)N4CCOCC4)c3)c3ccccc23)cc1` has -0.12

# The list continues:
SMILES,Bm FixLJ act
Cc1ccc(CN2C(=O)N(c3ccccc3)C(=O)C2CC(=O)Nc2ccccc2)cc1 (stereo unspecified),-1.64
O=C(CCCn1cncn1)NCCc1nc(-c2ccccc2)cs1,0.12
COc1ccc(S(=O)(=O)c2cc(NS(=O)(=O)c3ccc(Cl)cc3)c(C)c(C)c2O)cc1,-6.27
CCOCCCN(Cc1ccco1)C(=O)c1cc2c(=O)[nH]c3ccc(C)cc3c2s1,-2.23
CCCN(C(=O)c1cc2c(=O)oc3ccc(C)cc3c2s1)c1ccc(OCC)cc1,-0.14
CCn1cc(C(=O)N2CCN(c3cc(Cl)ccc3C)CC2)c(=O)c2cc(S(=O)(=O)N3CCCCC3)ccc21,-0.46
CCc1ccc(S(=O)(=O)c2cnc3ccc(OC)cc3c2N2CCCC(C)C2)cc1 (stereo unspecified),1.31
Cc1cc(C)cc(OC(C)C(=O)Nc2c(C(=O)c3ccccc3)oc3ccccc23)c1 (stereo unspecified),-1.41
O=C1CN(C(=O)c2ccccc2C(F)(F)F)C(c2ccccc2)c2cc(F)ccc2N1 (stereo unspecified),-1.71
COc1cccc(NC(=O)Cn2c(=O)n(-c3ccc(C)cc3)c(=O)c3ccc(C(=O)NCc4ccco4)cc32)c1,-0.36
N#Cc1ccccc1Cn1nnc2c(=O)[nH]c(C3CCCN(S(=O)(=O)c4ccc(F)cc4)C3)nc21 (stereo unspecified),-1.28
CCCCS(=O)(=O)N1CCC(CNC(=O)Cc2c(C)noc2C)CC1,0.57

# High-throughput results deposited in PubChem BioAssay by ICCB-Longwood Screening Facility, Harvard Medical School.

# These rows are one share of the data, so the mix of outcomes need not match the whole.
